From PubChem
CtBP-E1A blk: qHTS Assay for Inhibitors of the CtBP/E1A Interaction; AlphaScreen GST-E1A/His-CtBP binding, 1536-well; stronger effect = lower value; control for the full effect not named in the record; 0.49% of 340,000 active; CtBP / adenovirus E1A interaction (AlphaScreen); activity change, % (test concentration not listed); AID 651724, 2012; in the data active means activity change below about -65%; inconclusive means about -30% to -65%; inactive means above about -30%; note: % is set by controls: 0 for no effect and ±100 for the full control effect; compound concentration not given in the record
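AlphaScreen with 125 nM GST-E1A and 125 nM His-CtBP (5X stocks) in Tris pH 8.0, 300 mM NaCl, BSA, Tween 20, TCEP. Compounds preincubated 2 h at 37 deg C, then glutathione donor/nickel acceptor beads added for 1 h at 37 deg C in dark.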
PINK1 expr mod: A Quantitative High throughput Screen to Identify Chemical Modulators of PINK1 Expression; AID 624263, 2012; Potency, µM (doses to about 76.6 µM), for the others: at the highest dose activation (PINK1 increase), hits mostly activators; 0.2% of 410,000 active; PINK1 immunofluorescence, high-content cytometry, 24 h; active = well fitted activation curve with a large enough effect; inconclusive = small, poorly fitted or top-dose-only effect; inactive = flat fitted curve, though single readings scatter; cell line not stated here;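 note: potency is the fitted concentration of half-maximal effect; % of control where 0% means no effect; nearly all actives have a fitted effect of over 65% in size; a mitochondrial uncoupler was the plate control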
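Compound titrations (5 concentrations, 24 h) on a stable cell line; DMSO and CCCP controls. Endpoint: fixed-cell PINK1 immunofluorescence with mitochondrial, cell and nuclear markers, scanned by microplate cytometer.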
TRPML1 blocker: qHTS for Inhibitors of the Human Mucolipin Transient Receptor Potential 1 (TRPML1). TRPML1-inducible cells, Ca2+ dye fluorescence, FDSS; stronger effect = lower value; inhibition of EC80 agonist-evoked calcium signal. activity change, negative = inhibition, % (concentration not given with the values). 0.02% of 390,000 active. AID 624415, 2012; in the data active means activity change below about -50%; inconclusive means about -30% to -50%; inactive means above about -30%;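 note: stimulus is agonist 54-4 at its EC80 concentration; % is set by controls: 0 for no effect and ±100 for the full control effect; compound concentration not given in the record; the text of the record puts the active cut at -80%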
Target sequence (Q9GZU1 whole entry, looked up): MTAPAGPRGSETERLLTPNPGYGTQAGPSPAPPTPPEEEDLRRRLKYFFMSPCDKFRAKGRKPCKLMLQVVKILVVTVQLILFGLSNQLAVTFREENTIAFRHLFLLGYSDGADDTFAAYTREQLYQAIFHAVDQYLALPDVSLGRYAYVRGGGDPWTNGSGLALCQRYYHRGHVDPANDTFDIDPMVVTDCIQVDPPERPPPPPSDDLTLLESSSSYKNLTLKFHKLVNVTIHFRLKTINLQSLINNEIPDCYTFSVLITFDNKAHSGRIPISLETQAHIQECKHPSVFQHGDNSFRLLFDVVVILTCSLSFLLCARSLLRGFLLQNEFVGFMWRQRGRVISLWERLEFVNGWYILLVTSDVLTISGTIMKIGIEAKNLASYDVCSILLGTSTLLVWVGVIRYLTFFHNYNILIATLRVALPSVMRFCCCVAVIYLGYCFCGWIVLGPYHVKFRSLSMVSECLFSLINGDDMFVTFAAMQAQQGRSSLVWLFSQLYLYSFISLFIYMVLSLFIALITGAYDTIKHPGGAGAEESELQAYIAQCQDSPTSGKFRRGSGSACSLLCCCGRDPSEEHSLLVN
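Calcium fluorescence in TRPML1-DL cells induced overnight with Tet: a 110 s read after compound pin addition, then a 110 s antagonist read after challenge with 54-4 at 4 uM final (EC80).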
D2 agonist: Beta-Arrestin HTS for Positive Allosteric Modulators of the Human D2 Dopamine Receptor: Agonists | D(2) dopamine receptor (Homo sapiens), P14416 | DiscoveRx PathHunter D2 beta-arrestin, luminescence, 90 min; 100% = 57 uM dopamine signal | activation, % (concentration not given with the values) | 0.084% of 360,000 active | AID 624465, 2012; in the data active = activation above about 40%; inconclusive = about 15% to 40%; inactive = below about 15%; note: compound concentration not given in the record; the text of the record calls up to 30% inactive
Target sequence (P14416 whole entry, looked up): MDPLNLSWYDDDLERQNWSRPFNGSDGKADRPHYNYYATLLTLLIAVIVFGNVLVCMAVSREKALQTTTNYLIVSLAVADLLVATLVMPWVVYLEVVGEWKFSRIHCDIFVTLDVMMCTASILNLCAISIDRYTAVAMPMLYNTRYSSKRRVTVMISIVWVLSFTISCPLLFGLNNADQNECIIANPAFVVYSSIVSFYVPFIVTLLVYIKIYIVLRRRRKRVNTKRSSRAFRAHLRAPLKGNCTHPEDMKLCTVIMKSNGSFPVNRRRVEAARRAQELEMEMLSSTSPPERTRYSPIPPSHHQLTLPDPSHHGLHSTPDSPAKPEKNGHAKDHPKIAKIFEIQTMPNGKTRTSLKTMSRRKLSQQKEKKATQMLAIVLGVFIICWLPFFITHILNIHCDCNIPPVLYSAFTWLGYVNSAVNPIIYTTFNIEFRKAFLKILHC
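DiscoveRx PathHunter D2 beta-arrestin cells (2,100/well) attached overnight, then compound-stimulated 90 min at 37 C in HBSS/10 mM HEPES/0.1% Tween-20 buffer; beta-galactosidase complementation read by luminescence after 1 h at ambient temperature. Dopamine 57 uM final (EC100) as control.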
Six1-Eya2 blk: qHTS Assay for Inhibitors of the Six1/Eya2 Interaction | 0.56% of 360,000 active | AlphaScreen GST-Six1/His-Eya2 binding, biochemical; stronger effect = lower value; control for the full effect not named in the record | Homeobox protein SIX1 (Homo sapiens) + Protein phosphatase EYA2 (Homo sapiens), … | activity change, % (no concentration beside the values); in the data active = activity change below about -65%; inconclusive = about -30% to -65%; inactive = above about -30%; note: % is set by controls: 0 for no effect and ±100 for the full control effect; compound concentration not given in the record
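AlphaScreen luminescence read after one hour at 37 °C in darkness. Pin-transferred compounds met GST-Six1 and His-Eya2 protein (5X stock 250 nM/500 nM) plus glutathione donor and Ni-chelate acceptor beads (5X, 50 ug/mL).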
TRPML1 agonist: qHTS for Agonists of the Human Mucolipin Transient Receptor Potential 1 (TRPML1) | Mucolipin-1 (Homo sapiens), Q9GZU1 | TRPML1-expressing cells, Ca2+ dye fluorescence, FDSS; host cell line not named in the record; reference of the full effect not given here | activation, % (no concentration beside the values) | 0.12% of 410,000 active; in the data active = activation above about 50%; inconclusive = about 30% to 50%; inactive = below about 30%; note: 0% is about no effect; the text of the record puts the active cut at 80%
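Cells: TRPML1-DL, 1X Tet inducer, ~16 h at 37 degrees C/5% CO2. Dye: ABD Ca8 no-wash + quencher, 45-90 min RT. Read: 10 s baseline, compound add, 110 s agonist phase; 54-4 EC80 (4uM final), 110 s antagonist phase.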
Starred values were filed as active, the others as inactive; ? = inconclusive; nt = not tested or not shown; & = joins results of further samples; [ ] = remark or other dose.

Every second line gives: CtBP-E1A blk	PINK1 expr mod	TRPML1 blocker	D2 agonist	Six1-Eya2 blk	TRPML1 agonist
> CC(C)(C)[C@H]1C=C(C(=O)N2CCN(Cc3ccc4c(c3)OCO4)CC2)O[C@@H](OCc2ccc(CO)cc2)C1
    nt	2.8%	16	-2.9	-5	0.8
> Cc1ccc(NC(=O)c2ccc3c(c2)N(CC(=O)NC(C)C)C(=O)C(C)(C)O3)cc1
    5	1.2%	1	-1.7	-2	-0.4
> CCNC(=S)NNC(=O)c1cc(C)on1
    -3	-2.4%[38.3 µM]	-3	-5.2	-1	-0.6
> NC(=O)c1ccc2c(=O)n3c(-c4cccs4)csc3nc2c1
    ?	0.8%	-9	-0.7	?	0.0
> CCC(=O)c1ccc(OCC(=O)Nc2ccccc2N2CCCCC2)cc1
    7	2.8%	-8	-1.8	-6	-0.4
> CC(=O)NC1C(OC(=O)/C=C/c2ccccc2)OC(COC(C)=O)C(OC(C)=O)C1OC(C)=O (stereo unspecified)
    4	0.6%	20	-1.8	0	-0.2
> CC1CCN(S(=O)(=O)c2ccc3c(c2)c(=O)c(C(=O)NC2CCCC2)cn3C)CC1
    7	0.7%	-14	-2.2	-2	-0.1
> Cc1ccc(C)c(Cn2c(C)c(CNCc3ccc(F)cc3)c(C(=O)O)c2C)c1
    nt	1.6%	10	nt	nt	0.0
> CCOC(=O)c1cccc(NC(=O)CCS(=O)(=O)c2cccc3nsnc23)c1
    -2	0.1%	54	-2.6	-4	2.2
> COC(=O)[C@H]1C[C@H]1[C@@H](NC(=O)c1cccnc1)c1ccccc1
    -12	0.6%	-3&2	-1.5	-8	-0.4&1.2
> CC1CCc2[nH]nc(C(=O)O)c2C1 (stereo unspecified)
    41	1.1%	7	0.7	24	0.1
> CCOc1ccc(NC(=O)COC(=O)CCS(=O)(=O)c2ccc(C)cc2)cc1
    5	0.5%	23	-3.4	16	2.9
> S=c1[nH]nc(C2CCCCC2)n1/N=C/c1ccccc1
    -8	7.2%	-9	-9.8	-1	1.7
> CCCc1nc(NC(=O)c2ccccc2)nc(NC(=O)c2ccccc2)n1
    3	0.9%	0	-3.0	-1	1.3
> CCN(CC)CCNC(=O)CCc1nn(C)c(=O)c2ccccc12
    4	-1.6%	-1	-2.4	2	1.2
> Cc1cc(C)n2nc3ccccc3c2n1
    8	-5.5%[38.3 µM]	11	1.6	-1	0.5
> Cc1ccc(-c2nc3cc(C(C)C)ccc3o2)cc1NC(=O)c1cc([N+](=O)[O-])ccc1N1CCOCC1
    nt	3.0%	3	nt	nt	-0.5
> COc1ccc(NS(=O)(=O)c2ccc3[nH]c4c(c3c2)CCCCC4)cc1
    nt	?	12	nt	nt	0.7
> CCCc1ccc2oc(C(=O)NCCc3nc(C(=O)OCC)cs3)c(C)c2c1
    7	14%	-8	-3.7	-12	1.5
> COc1cc(S(=O)(=O)NCc2ccccc2)ccc1F
    -9	0.9%	-3	-0.6	18	-0.8
> CCOC(=O)C(NC(C)=O)C(OC(C)=O)c1cccc(N(CCO)CCO)c1 (stereo unspecified)
    4	-0.3%	14	-0.6	5	0.2
> CCOC(=O)c1cccc(NC(=O)CC2C(=O)N(c3ccc(C)cc3)C(=O)N2Cc2cccc(OC)c2)c1 (stereo unspecified)
    nt	1.0%	-14	nt	nt	3.1
> CCc1nn(CC(=O)Nc2c(C)cc(C)cc2C)c(=O)c2cc3sccc3n12
    nt	-0.4%	-16	nt	nt	0.1
> CCOc1cc(O)c(-c2[nH]ncc2-c2nc(C)cs2)cc1CC
    10	2.2%	nt	5.6	-5	nt
> COc1ccc(NS(=O)(=O)c2cc(NC(=O)c3nn(C)c(=O)c4ccccc34)ccc2OC)cc1
    -24	2.8%	0	0.6	-12	-0.2
> COc1cc(/C=C2\CCCc3c2nc2ccccc2c3C(=O)O)cc(OC)c1O
    -24	-1.1%	5	4.2	-28	-0.2
> C=CCn1c(SCC(=O)NCC(c2ccccc2)N(C)C)nc2sc3c(c2c1=O)CCC3 (stereo unspecified)
    -5	2.7%	16	-1.5	2	0.5
> COc1ccccc1NC(=S)NCCSc1ccc(Cl)cc1
    0	0.7%	-4	-3.5	22	0.5
> CCOC(=O)COn1c(=O)c(-c2ccccc2)[n+]([O-])c2ccccc21
    5	1.0%	13	1.1	6	0.8
> COc1ccccc1CCC(=O)N1CCN(S(=O)(=O)c2cccc(F)c2)CC1
    7	1.0%	-5	7.0	1	-1.1

The last six compounds of the part above open the next one:
Every second line gives: CtBP-E1A blk	PINK1 expr mod	TRPML1 blocker	D2 agonist	Six1-Eya2 blk	TRPML1 agonist
> COc1ccc(NS(=O)(=O)c2cc(NC(=O)c3nn(C)c(=O)c4ccccc34)ccc2OC)cc1
    -24	2.8%	0	0.6	-12	-0.2
> COc1cc(/C=C2\CCCc3c2nc2ccccc2c3C(=O)O)cc(OC)c1O
    -24	-1.1%	5	4.2	-28	-0.2
> C=CCn1c(SCC(=O)NCC(c2ccccc2)N(C)C)nc2sc3c(c2c1=O)CCC3 (stereo unspecified)
    -5	2.7%	16	-1.5	2	0.5
> COc1ccccc1NC(=S)NCCSc1ccc(Cl)cc1
    0	0.7%	-4	-3.5	22	0.5
> CCOC(=O)COn1c(=O)c(-c2ccccc2)[n+]([O-])c2ccccc21
    5	1.0%	13	1.1	6	0.8
> COc1ccccc1CCC(=O)N1CCN(S(=O)(=O)c2cccc(F)c2)CC1
    7	1.0%	-5	7.0	1	-1.1
> CCCCn1c(=O)n(C)c(=O)c2c3c(sc21)COC(C)(C)C3
    -1	8.9%	9	0.7	-8	0.5
> O=C(Nc1ccc(Br)cc1)c1cccc(N2C(=O)C3C4C=CC(C4)C3C2=O)c1 (stereo unspecified)
    7	1.1%	11	-1.2	-1	1.4
> NC(=O)c1ccc(SCC(=O)OCC(=O)NC2CCCCCCC2)c([N+](=O)[O-])c1
    4	0.8%	-8	10	0	-0.2
> O=C(CSc1nnc2ccccn12)Nc1ccc(N2CCOCC2)cc1
    -10	-1.4%	18	-5.2	0	0.6
> C[C@H](CO)N1C[C@H](C)[C@H](CN(C)S(=O)(=O)c2cccs2)Oc2ncc(-c3cc4ccccc4o3)cc2C1=O
    -1	-1.6%	-3	-2.8	-5	-0.3
> CCOc1ccc(-c2nc3c(c(SCC(=O)N4CCCCC4)n2)Cc2ccccc2O3)cc1
    nt	-1.9%	7	nt	nt	-0.8
> Cc1c(OCC(=O)N[C@H](C(=O)O)c2ccccc2)ccc2c3c(c(=O)oc12)CCCC3
    -14	1.3%	nt	-5.0	-17	nt
> COc1cc2[nH]c(=S)n(Cc3ccc(C)cc3)c(=O)c2cc1OC
    -12	6.3%	45	3.5	-4	-0.3
> CCCN(CCC)C(=O)C(Cc1ccccc1)NS(=O)(=O)c1ccc2c(c1)c(=O)n(C)c(=O)n2C (stereo unspecified)
    nt	0.6%	4	nt	nt	-0.5
> COc1cc(C2CC(=O)N(Cc3cccc(F)c3)c3ccccc3S2)cc(OC)c1OC (stereo unspecified)
    nt	-1.7%	-20	nt	nt	3.8
> CC(C)CN(C(=O)C(c1ccccc1)c1ccccc1)c1c(N)n(CC(C)C)c(=O)[nH]c1=O
    -15	2.3%	10	-3.3	1	-0.5
> COc1ccc(F)cc1CN1CCN(CC(=O)Nc2ccccc2C(=O)NC2CC2)CC1
    2	1.6%	-5	-2.0	-1	1.8
> O=C1c2cc(Br)ccc2N(Cc2ccc(Br)cc2)S(=O)(=O)C1c1cc(Cl)c(Cl)cc1[N+](=O)[O-] (stereo unspecified)
    -14	?	3	-5.0	-14	0.1
> O=C1c2ccccc2C(=O)N1CCCCCCc1ccccc1
    75	9.0%	0	-2.7	77	-0.3
> COC(=O)C1=C(C)N(Cc2ccccc2)C(=NCCCCO)N[C@H]1c1ccccc1
    1	0.5%	0	-1.9	1	-0.1
> CSC(=NC#N)N1CCN(c2cccc(Cl)c2)CC1
    0	2.8%	4	-1.0	-1	-0.7
> Cc1nn(-c2nc3ccccc3s2)c(N)c1-c1ccc(Cl)cc1
    7	0.4%	7	-2.5	0	2.4
> COc1cc2[nH]c(=O)n(Cc3ccc(C(=O)N4CCN(c5cc(Cl)ccc5C)CC4)cc3)c(=O)c2cc1OC
    nt	1.8%	-7	nt	nt	-0.6
> Cc1nc2ccccn2c1C(=O)NN=C1CCCC1
    nt	0.7%	9	4.5	-5	0.1
> CCn1cc(CCCC(=O)NCc2cccnc2)c2ccccc21
    0	-2.2%	11	-2.2	-5	0.6
> Cc1ccc(S(=O)(=O)N2CC(C)N(S(C)(=O)=O)C2)cc1 (stereo unspecified)
    2	0.6%	-6	-2.1	11	0.0
> O=C(Nc1cccc(-c2nnc(-c3ccccc3)o2)c1)c1ccco1
    -7	?	1	-2.5	-12	-1.7
> CCc1ccc(NC(=O)c2ccc(F)c(S(=O)(=O)N(C)C3CCCCC3)c2)cc1
    nt	2.7%	-11	nt	nt	0.2
> COc1cccc(-c2cn(-c3cccc(C(F)(F)F)c3)c(=S)[nH]2)c1
    0	2.7%	11	?	-6	2.8
> O=C(O)c1ccc(NC(=O)c2cccc(S(=O)(=O)Nc3ccc(C(=O)O)cc3)c2)cc1
    -1	1.1%	19	-6.6	5	0.6
> CCCN1CCC(=O)N([C@H](CN=[N+]=[N-])CC(C)C)CC1
    -2	0.8%	-3	1.4	4	-0.2

Shown field by field: part of the list above
> CSC(=NC#N)N1CCN(c2cccc(Cl)c2)CC1
- CtBP-E1A blk = 0
- PINK1 expr mod = 2.8%
- TRPML1 blocker = 4
- D2 agonist = -1.0
- Six1-Eya2 blk = -1
- TRPML1 agonist = -0.7

> CCCN1CCC(=O)N([C@H](CN=[N+]=[N-])CC(C)C)CC1
- CtBP-E1A blk = -2
- PINK1 expr mod = 0.8%
- TRPML1 blocker = -3
- D2 agonist = 1.4
- Six1-Eya2 blk = 4
- TRPML1 agonist = -0.2

> Cc1nn(-c2nc3ccccc3s2)c(N)c1-c1ccc(Cl)cc1
- CtBP-E1A blk = 7
- PINK1 expr mod = 0.4%
- TRPML1 blocker = 7
- D2 agonist = -2.5
- Six1-Eya2 blk = 0
- TRPML1 agonist = 2.4

Outcome played no part in choosing rows; 1% or so of the library scored in one or more.
